rRNA inh HTS: inhibits bacterial ribosomal RNA function over humanized ribosomes. 1.6% of 350,000 active. AID 720706. GFP signal change (wild-type ribosome), % (test concentration not listed). E. coli WT GFP vs humanized-ribosome RFP mutants, fluorescence, 24 h; hits give low values; DMSO median 0, no signal -100;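 active = significant combined selectivity score with lowered wild-type GFP, culture density cut under 30%, mutant RFP and density less affected; inactive = any of these conditions unmet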; also: one replicate is shown; some compounds called inactive have numbers as strong as hits
AF4-AF9 inh: MLL-AF4/AF9 protein interaction inhibition; P42568; AlphaScreen, biotin-AF4 peptide binding to FLAG-AF9; inhibition, % at 10 µM; 0.47% of 350,000 active;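 active = every replicate reaching a set inhibition limit, whatever the replicate mean, cut at about 25% in these data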;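 also: 0% = plate neutral control median and 100% = total signal loss; the record names both 10 and 1 µM as test concentration; the first replicate is given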
Target sequence (P42568 whole entry, looked up): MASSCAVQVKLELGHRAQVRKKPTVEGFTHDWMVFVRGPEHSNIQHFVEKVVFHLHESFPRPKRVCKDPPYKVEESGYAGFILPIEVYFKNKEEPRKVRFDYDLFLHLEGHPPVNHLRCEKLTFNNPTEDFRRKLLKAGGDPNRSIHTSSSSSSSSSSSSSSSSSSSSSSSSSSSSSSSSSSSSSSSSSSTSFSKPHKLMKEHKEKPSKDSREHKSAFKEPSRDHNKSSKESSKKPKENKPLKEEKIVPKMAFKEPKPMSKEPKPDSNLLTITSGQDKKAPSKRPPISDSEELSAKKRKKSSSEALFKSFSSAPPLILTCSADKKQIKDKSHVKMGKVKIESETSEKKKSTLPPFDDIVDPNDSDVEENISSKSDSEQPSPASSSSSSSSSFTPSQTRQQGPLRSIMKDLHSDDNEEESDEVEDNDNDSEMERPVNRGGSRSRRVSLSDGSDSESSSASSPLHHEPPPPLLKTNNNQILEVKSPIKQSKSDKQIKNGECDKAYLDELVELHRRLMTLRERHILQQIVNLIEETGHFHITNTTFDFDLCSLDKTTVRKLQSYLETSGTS
A1 inh: inhibitors of the anti-apoptotic protein A1, read as caspase activation | AID 2462 | MEF A1-2A-BIM cells, Caspase-Glo 3/7 luminescence, 3 h; percent of clofoctol response, vehicle zero | caspase activation, % (concentration not given with the values) | 0.066% of 330,000 active;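 active = over half of replicate activation scores above 10%, or exactly half above 10 with the replicate mean above 10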;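 also: wells of about 30 µL received 50 nL stock; many hits fall short of the cut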
FGF22 binding: FGF22 (human) thermal shift binding; AID 651658; 1.5% of 340,000 active; recombinant FGF22 thermal shift, SYPRO orange fluorescence; percent of sucrose octasulfate shift, DMSO zero; calls only at 9.99 µM; Q9HCT0;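 active = melting point raised past a set limit in the mean and every replicate; three in four hits are not shown here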
Target sequence (Q9HCT0 whole entry, looked up): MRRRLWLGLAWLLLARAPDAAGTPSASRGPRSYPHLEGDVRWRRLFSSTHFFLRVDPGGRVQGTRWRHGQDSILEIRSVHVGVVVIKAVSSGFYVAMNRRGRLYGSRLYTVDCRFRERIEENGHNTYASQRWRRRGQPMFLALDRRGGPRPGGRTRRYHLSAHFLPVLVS
T cruzi inh: blocks replication of Trypanosoma cruzi; T. cruzi beta-gal in NIH3T3, luminescence, 90 h; inhibition, % (no concentration beside the values); 1.4% of 300,000 active; AID 1885;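 active = mean inhibition across valid replicates above about 55%, limit read from the data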;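 also: signal also drops with host cell toxicity which is not excluded here; 0% = plate median of DMSO wells and 100% = zero luminescence signal; higher percent means less beta-gal luminescence so fewer parasites; stock transfer was 50 nL into about 50 µL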
UCH37 inh: inhibitors of human deubiquitinating enzyme UCH37. Q9Y5K5. 0.33% of 330,000 active. inhibition, % (no concentration beside the values). purified proteasome/UCH37, Ub-AMC cleavage fluorescence;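 active = mean of two replicates above 20%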;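 also: 0% = compound-free wells with enzyme and 100% = wells lacking proteasome; stock transfer was 100 nL into about 20 µL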
Target sequence (Q9Y5K5 whole entry, looked up): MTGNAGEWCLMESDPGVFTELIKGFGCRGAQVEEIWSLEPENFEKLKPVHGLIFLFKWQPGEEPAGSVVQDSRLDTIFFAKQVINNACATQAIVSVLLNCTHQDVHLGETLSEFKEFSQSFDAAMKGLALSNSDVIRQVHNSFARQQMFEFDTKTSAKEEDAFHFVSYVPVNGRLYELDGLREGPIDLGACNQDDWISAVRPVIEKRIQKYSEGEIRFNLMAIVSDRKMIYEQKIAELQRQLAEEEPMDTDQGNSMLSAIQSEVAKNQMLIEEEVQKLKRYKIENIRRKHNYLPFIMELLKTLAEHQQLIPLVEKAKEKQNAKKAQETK
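Assay system: Proteasome-bound UCH37. Buffer or medium: pH 7.4 Tris-HCl (50 mM) with ovalbumin, ATP-MgCl2, DTT. Incubation: 30 min preincubation with enzyme, 25 min cleavage at room temperature. Measured by: fluorescence, ex 355 nm, em 460 nm. Read-out basis: percent inhibition. Control set: wells without proteasome as full block, compound-free enzyme plus substrate as uninhibited.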
Ecoli growth: E. coli growth inhibition; Escherichia coli growth, OD600, 23 h; hits give low values; OD600 absorbance (test concentration not listed); 0.21% of 330,000 active;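 active = OD600 absorbance below the run mean of sample wells minus 3.6 SD, in any replicate, cut at about 0.56 in these data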;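 also: stock transfer was 300 nL into about 60 µL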
Beta cell apopt: blocks beta cell apoptosis; protection from apoptosis, % (test concentration not listed); 0.8% of 300,000 active; AID 435005; INS-1E cytokine-induced death, ATP luminescence, 48 h; percent of positive-control rescue, neutral wells zero;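 active = all replicates at 75% or more, or half of them and the mean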;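 also: 0% = cytokine-treated negative control wells and 100% = positive control rescue; higher means more ATP so stronger rescue from cytokine killing; wells of about 40 µL received 100 nL stock; the first replicate is given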
rRNA inh HTS OD600: recorded beside rRNA inh HTS, whose call it bears; OD600 change, %; measured here: OD600 growth;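 optical density of the mix in the first replicate; 0 = DMSO median and -100 = no signal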
rRNA inh HTS RFP: second read-out of rRNA inh HTS, no call of its own (marks repeat the call); RFP signal change, %; measured here: RFP humanized mutant strains;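 first replicate; 0 = DMSO median and -100 = no signal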
Numbers without * were called inactive; i = inactive; nt = no result given. An excerpt; count on the stated rates, not on these rows.

SMILES | rRNA inh HTS | rRNA inh HTS OD600 | rRNA inh HTS RFP | AF4-AF9 inh | A1 inh | FGF22 binding | T cruzi inh | UCH37 inh | Ecoli growth | Beta cell apopt
COc1cccc(/C=N/Nc2nc3ccccc3[nH]2)c1OC | -25* | -13* | -3.0* | 5.0 | -1.2 | i | -6 | nt | nt | nt
Cc1cccc(-c2cc(C(=O)NCc3ccccn3)c3ccccc3n2)c1 | -30 | -48 | -4.0 | 1.4 | 0.5 | i | 6 | -11 | 0.69 | 7
O=C(c1cc(Cl)nc2ccccc12)N1CCN(Cc2ccc3c(c2)OCO3)CC1 | 0 | -3 | -0.3 | 5.6 | 0.7 | i | nt | -1.5 | 0.7 | -3
Cc1ccc(SCC2=NN(c3nc(C)cc(C)n3)C(=O)C2)cc1 | 16 | 6 | -0.6 | -2.3 | 0.2 | i | -7 | 1.1 | 0.72 | -2
O=C(COC(=O)CSc1nnc(-c2ccc(Cl)cc2)o1)Nc1cc(Cl)cc(Cl)c1 | -6 | 2 | -2.0 | -4.2 | -0.9 | i | 7 | 3.4 | 0.67 | 0
Nc1ccc(S(=O)(=O)NNC(=O)C(=O)NNc2ccccc2)cc1 | 15 | 2 | -0.3 | 3.3 | 1.0 | i | 67* | 4.5 | 0.7 | -4
CC(C)(C)NC(=O)CSc1nc2ccccc2n1-c1ccccc1 | nt | nt | nt | nt | 0.5 | nt | nt | 0.8 | 0.72 | -4
COCCN=C(NS(=O)(=O)c1cccs1)c1ccccc1Cl | 6 | 15 | -1.6 | -1.7 | 0.4 | i | nt | -3.0 | 0.68 | -1
CC(=O)c1cc2c(cc1N/C(=N/S(=O)(=O)c1ccc(Br)cc1)c1ccccc1)OCO2 | -1 | 12 | -0.8 | -2.6 | 0.2 | i | 28 | -88 | 0.71 | -6
CCCCN(Cc1ccccc1)S(=O)(=O)c1ccc2[nH]c(=O)oc2c1 | nt | nt | nt | nt | 2.1 | nt | -1 | -0.6 | 0.67 | 2
COc1ccc(Cn2ccnc2SCC(=O)Nc2cccc(NC(C)=O)c2)cc1 | 4 | 9 | 0.9 | 0.1 | 0.0 | i | -10 | 0.8 | 0.73 | nt
COc1ccc(C(OC(=O)c2ccco2)C(=O)NC2CCCCC2)cc1 (stereo not given) | nt | nt | nt | nt | 1.4 | nt | 0 | 6.3 | 0.73 | -2
Cn1c(SCC(=O)N2CCCC2)nc2ccccc21 | 8 | 1 | 0.1 | 0.6 | 1.6 | i | -4 | 0.2 | 0.66 | -2
CNC(=O)c1nnsc1S(=O)c1ccc(Cl)cc1 (stereo not given) | -52 | -79 | -21 | -2.8 | nt | nt | 60* | 3.9 | 0.57 | nt
O=C(Nc1ccc2c(c1)CCC2)c1cnc(Cl)c(Cl)c1 | 17 | 15 | 0.1 | 3.5 | -1.0 | i | 0 | -1.8 | 0.72 | 6
CC(=O)c1ccc(OCc2cc(C(=O)N3CCN4CCCC4C3)no2)cc1 (stereo not given) | 9 | 6 | 0.4 | 1.1 | 1.4 | i | 5 | -2.2 | 0.73 | 2
COCC(C)n1c(C)cc(C(=O)CSc2nc(C)c(C)c(C)n2)c1C (stereo not given) | 3 | 0 | 1.4 | 7.1 | 0.4 | i | -4 | 6.1 | 0.67 | 3
CCNc1nc(Oc2ccc(C(=O)OC)cc2)nc(N2CCOCC2)n1 | 8 | 1 | -6.5 | 0.2 | 0.0 | i | -8 | 2.9 | 0.69 | -10
CCCCn1c(=O)[nH]c(=O)c2c1nc(CN1C(=O)c3ccccc3S1(=O)=O)n2CCC | nt | nt | nt | nt | 1.2 | nt | -3 | 2.9 | 0.67 | -3
CCOC(=O)CNC(=O)CNC(=O)c1nn(-c2ccc(OC)c(OC)c2)c(=O)c2ccccc12 | 7 | 13 | -0.9 | -1.0 | -0.3 | i | -4 | 6.6 | 0.66 | -1
NNC(=S)NCc1ccc2c(c1)OCO2 | nt | nt | nt | nt | 0.0 | nt | -6 | 0.6 | 0.65 | -4
Cc1ccc(S(=O)(=O)N(C)C)cc1NC(=O)COC(=O)C1CC1 | 5 | 4 | 0.3 | 7.0 | -0.4 | i | 6 | 4.3 | 0.62 | nt
Cc1ccc(C(CNC(=O)Nc2ccc(Cl)cc2)N2CCN(C)CC2)cc1 (stereo not given) | 2 | -1 | -1.6 | 2.6 | 2.6 | i | 18 | 2.2 | 0.62 | -7
CCOc1ccc(C(=O)Nc2ccc3c(c2)OCCO3)cc1[N+](=O)[O-] | 0 | 4 | -1.7 | -7.7 | -0.3 | i | 12 | 1.8 | 0.63 | 4
COc1cc(OC)nc(NC(=O)NS(=O)(=O)c2ccccc2Cl)n1 | 2 | 16 | 4.1 | 9.5 | 0.0 | nt | -4 | 4.2 | 0.72 | -10
Cc1ccc(NC(=O)NC2(C(=O)NCc3ccccc3)CCCCC2)cc1 | nt | nt | nt | nt | 0.8 | nt | 4 | 0.8 | 0.73 | 1
CC(C)CCn1c(SCC(=O)c2ccccc2)nc2c1c(=O)[nH]c(=O)n2C | nt | nt | nt | nt | -0.5 | nt | 10 | 1.1 | 0.67 | 2
CCc1nnc(NC(=O)c2oc3ccc(Br)cc3c2C)s1 | 2 | 0 | -5.1 | -1.8 | -2.6 | i | nt | -1.0 | 0.69 | -3
COc1ccc(Oc2cc(C)c3cccc(C)c3n2)cc1 | nt | nt | nt | nt | -0.4 | nt | 8 | 5.6 | 0.74 | nt
COc1ccc(CC(=O)Nc2cc(S(=O)(=O)N3CCCCC3)ccc2C)cc1OC | 2 | -6 | -4.7 | 1.0 | 2.9 | i | 1 | -2.5 | 0.7 | 19
Cc1c(=O)n(OCc2cccc(F)c2)c2ccccc2[n+]1[O-] | nt | nt | nt | nt | 0.6 | nt | 7 | -12 | 0.71 | -3
CCN(CC)C(=O)c1cccc2nc3ccccc3nc12 | 2 | -3 | 1.3 | 4.5 | -0.3 | i | -5 | 9.4 | 0.66 | 0
O=C1CC(c2cccs2)c2cc3c(cc2N1)OCCO3 (stereo not given) | -2 | -2 | -5.4 | -51 | -0.4 | i | -21 | 4.0 | 0.69 | 2
CCCN(CCC)C(=O)Cn1c2ccccc2c2nc(=O)cc(C)n21 | 6 | 16 | -1.0 | -28 | 0.6 | i | -8 | -0.6 | 0.7 | -13
CC(=O)ONC(=Nc1ccccc1)c1nonc1N | 0 | 1 | 0.1 | -1.1 | 0.2 | i | -7 | 5.1 | 0.7 | -11
O=C(NCc1ccc(/C=N\NC(=O)C(=O)Nc2ccccc2Br)o1)C(=O)Nc1ccccc1 | 9 | 12 | -2.1 | -10 | 11* | i | -7 | nt | nt | 16
Cc1ccccc1N(C(=O)c1csnn1)C(C(=O)NC(C)(C)C)c1cccs1 (stereo not given) | -4 | -6 | 3.8 | -1.7 | 0.6 | i | 1 | 1.5 | 0.69 | -1
COc1ccc(-c2nc(SC)n(S(=O)(=O)c3ccccc3)n2)cc1 | nt | nt | nt | nt | 0.1 | nt | -4 | 1.9 | 0.71 | 1
O=C(NCc1ccccc1Cl)C1CCN(c2cnccn2)CC1 | -2 | -12 | 0.4 | 0.0 | -0.7 | i | 12 | -15 | 0.69 | -7
Cc1ccc(OCC(=O)Nc2ccccc2N2CCOCC2)c(C)c1 | nt | nt | nt | nt | 0.2 | nt | -18 | 5.3 | 0.7 | 5
CCOC(=O)N1CCN(c2cc(=O)n(-c3ccc(Br)cc3)c(=O)[nH]2)CC1 | 4 | 5 | 0.8 | -2.0 | -0.8 | i | -8 | 1.3 | 0.74 | -2
Oc1ccc(/C=N/n2c(COc3ccccc3)n[nH]c2=S)c(O)c1 | -6 | -8 | -2.7 | -3.6 | 1.2 | i | -17 | nt | nt | nt
CCOCCCNC(=O)c1ccc2c(c1)N(Cc1ccccc1)C(=O)CS2=O (stereo not given) | 5 | 14 | -2.3 | -0.1 | 0.1 | i | -5 | 2.3 | 0.71 | -1
COc1ccccc1CCNC(=O)CCSc1nc(-c2ccco2)cc(C(F)(F)F)n1 | nt | nt | nt | nt | 0.0 | nt | 25 | -2.1 | 0.8 | 6
CN(C)c1oc(COc2ccc(F)cc2)nc1C#N | nt | nt | nt | nt | 0.1 | nt | 6 | -0.5 | 0.72 | -5

Limited to A1 inh, for some of the entries so far:
structure,A1 inh
Cc1ccccc1N(C(=O)c1csnn1)C(C(=O)NC(C)(C)C)c1cccs1 (stereo not given),0.6
COc1ccc(-c2nc(SC)n(S(=O)(=O)c3ccccc3)n2)cc1,0.1

(continued)
SMILES | rRNA inh HTS | rRNA inh HTS OD600 | rRNA inh HTS RFP | AF4-AF9 inh | A1 inh | FGF22 binding | T cruzi inh | UCH37 inh | Ecoli growth | Beta cell apopt
COCC(=O)N(C)C1(c2nnnn2CCOC(=O)Nc2ccc(Cl)cc2)CCCCC1 | 4 | -1 | -1.5 | 0.1 | 0.4 | i | -7 | 1.1 | 0.67 | 3
CC(=O)Nc1ccc(NC(=O)C(C)OC(=O)c2ccccc2NS(=O)(=O)c2cccs2)cc1 (stereo not given) | -10 | -3 | -2.8 | 2.6 | 0.1 | i | 3 | -0.9 | 0.73 | -1
COc1ccc(C(=O)NCCSCc2ccccc2Cl)cc1OC | -30 | -31 | -4.3 | -6.8 | 1.8 | i | -2 | 5.0 | 0.64 | -1
O=C(CC1C(=O)NCCN1Cc1ccccc1)NCCCOc1cccnc1 (stereo not given) | 21 | 10 | 1.2 | -0.5 | 0.1 | i | -9 | nt | nt | -4
CCN1CC=C2C(C#N)=C(N)C(C#N)(C#N)[C@H](c3cccc(OC)c3OC)[C@H]2C1 | nt | nt | nt | nt | 0.2 | nt | 1 | -58 | 0.7 | -23
COc1ccc(CC(=O)N/N=C(\C)c2ccc(Br)s2)cc1 | 0 | 0 | -1.5 | -1.1 | 0.2 | i | 0 | nt | nt | -3
O=C(Cn1nc(C(F)(F)F)c2c1CCC2)NCc1ccc(Cl)cc1 | nt | nt | nt | nt | -0.3 | nt | -5 | -1.4 | 0.71 | 1
CCCCNC(=O)COc1ccccc1C(=O)c1cc(C#N)c(=O)n(CCOC)c1 | 9 | 5 | 3.6 | -19 | 0.3 | i | 11 | -1.7 | 0.71 | 3
CC(C)n1c(C(F)(F)F)nc2cc(C(=O)N3CCC(O)CC3)ccc21 | -7 | -21 | -1.7 | 1.3 | 1.0 | i | 4 | 1.8 | 0.59 | 1
CCCn1c(C(O)c2ccc(OC)c(OC)c2)nc2ccccc21 (stereo not given) | 7 | 2 | -1.3 | -7.5 | -0.3 | i | 1 | 3.7 | 0.69 | 2
CC(=O)c1cc(C)ccc1OC(=O)c1cccnc1 | nt | nt | nt | nt | 0.5 | nt | -27 | 2.3 | 0.73 | nt
COCCn1c(=S)[nH]c2cc(C(=O)N3CCN(Cc4ccc5c(c4)OCO5)CC3)ccc2c1=O | nt | nt | nt | nt | 0.3 | nt | nt | 5.4 | 0.68 | 6
COC(=O)/C(C#N)=C/c1occc1C | nt | nt | nt | nt | 0.9 | nt | -5 | 15 | 0.7 | -3
O=C(NCCNCc1ccc(F)cc1)c1ccco1 | nt | nt | nt | nt | 0.0 | nt | 6 | -1.1 | 0.72 | 0

Screening results deposited in PubChem by several laboratories.
